Screens: PubChem, National Center for Advancing Translational Sciences (NCATS)
Marburg entry inh: blocks Marburg virus binding to or entry into cells. Marburg virus pseudotyped entry inhibition, cell reporter; control for the full effect not named in the record; about a third of the inactives were read at about 46 µM. Potency, µM (titrated, usually from 37.8 µM), without a hit: top-dose activity change, negative = inhibition, usual class: inhibitors. 300,000 compounds, 1.8% hits; active = well fitted inhibition curve with a large enough effect; inconclusive = small, poorly fitted or top-dose-only effect, or effect the other way; inactive = flat fitted curve, though single readings scatter; tested in HEK293 cells; about a fifth of its hits are not listed in these tables; note: % is set by controls: 0 for no effect and ±100 for the full control effect; luciferase read-out
2A StopGo: lowers the luciferase signal of an FMDV 2A StopGo reporter. human cells with a luciferase reporter of 2A StopGo recoding; control for the full effect not named in the record. 410,000 compounds, 1.2% hits. Potency, µM (highest dose often 57.9 µM), without a hit: at the highest dose signal change, negative = less light; active = well fitted falling curve with a large enough effect; inconclusive = small, poorly fitted or top-dose-only effect; inactive = no such curve, though single readings can be large or run the other way; tested in HEK293T cells; note: % is set by controls: 0 for no effect and ±100 for the full control effect; nearly all actives have a fitted effect of over 45% in size; luciferase light after 4 h
RE007 growth inh: less growth of the S. pombe RE007 Vpr strain | S. pombe RE007 Vpr strain, BacTiter-Glo ATP luminescence, 24 h; control for the full effect not named in the record | Potency, µM (highest dose often 92.2 µM), inactives show at the highest dose activity change, negative = less growth | 360,000 compounds, 0.21% hits | AID 651644; active = well fitted falling curve with a large enough effect; inconclusive = small, poorly fitted or top-dose-only effect; inactive = no such curve, though single readings can be large or run the other way;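 note: % is set by controls: 0 for no effect and ±100 for the full control effect; nearly all actives have a fitted effect of over 50% in size; the assay follows cell death caused by Vpr and the record does not say whether a fall means rescue or toxicity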
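Fission yeast strain RE007, carrying one chromosomally integrated HIV-1 vpr copy, was seeded at OD 0.01 in PMG+AL medium with 23 nL pinned compound. After 24 h at 30 °C and 99% humidity, viability was read by BacTiter-Glo luminescence.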
NS1 inh: blocks influenza NS1 protein function | S. cerevisiae slowed by influenza A NS1, growth recovery by OD600 | Potency, µM (top dose mostly 46.1 µM), for inactives: top-dose activity, positive = more growth | 270,000 compounds, 0.4% hits; note: actives are rising curves; nearly all actives have a fitted effect of over 50% in size
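S. cerevisiae expressing influenza A NS1, grown in glucose, washed, then diluted 1:100 into pH 6.0 -URA galactose medium with 23 nl compound. Growth recovery read as OD600; NS1-free strain serves as control.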
Lassa entry inh: Lassa virus entry inhibition | Lassa virus pseudotype entry inhibition, cell reporter; control for the full effect not named in the record | Potency, µM (doses to about 37.9 µM), for inactives: at the highest dose activity change, negative = inhibition, hits mostly inhibitors | 300,000 compounds, 1.2% hits; active means well fitted inhibition curve with a large enough effect; inconclusive means small, poorly fitted or top-dose-only effect, or effect the other way; inactive means flat fitted curve, though single readings scatter; tested in HEK293 cells; note: % is set by controls: 0 for no effect and ±100 for the full control effect; nearly all actives have a fitted effect of over 50% in size; luciferase read-out
Cruzain inh Det: blocks cruzain activity in presence of Triton detergent; P25779; purified cruzain, Z-FR-AMC fluorescence, 0.01% Triton; Potency, µM, for inactives: max response, negative = inhibition, hits mostly inhibitors; 200,000 compounds, 0.43% hits; active = well fitted curve in the direction sought with a large enough effect; inconclusive = small, poorly fitted or top-dose-only effect, or another doubt; inactive = no such curve, though single readings can be large; an effect the other way counts as inactive or inconclusive;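 note: plate controls were neutral wells for no effect and buffer without enzyme for full effect; nearly all actives have a fitted effect of over 40% in size; top concentration of the series not given in the record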
Target sequence (P25779 123-467 limits assumed): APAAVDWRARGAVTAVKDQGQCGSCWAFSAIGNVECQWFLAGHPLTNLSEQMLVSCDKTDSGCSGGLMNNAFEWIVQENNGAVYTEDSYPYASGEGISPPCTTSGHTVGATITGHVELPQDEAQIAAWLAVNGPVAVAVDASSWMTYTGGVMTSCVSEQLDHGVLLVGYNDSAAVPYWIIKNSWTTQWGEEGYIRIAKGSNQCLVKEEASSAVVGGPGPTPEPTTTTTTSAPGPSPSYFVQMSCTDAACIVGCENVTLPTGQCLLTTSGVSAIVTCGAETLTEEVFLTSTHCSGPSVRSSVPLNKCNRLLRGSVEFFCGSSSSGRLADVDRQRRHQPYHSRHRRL
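Sodium acetate buffer (100 mM, pH 5.5) containing 5 mM DTT and 0.01% Triton X-100 hosted 1.5 nM cruzain and test compound for 15 min at room temperature. Cleavage of 2 uM Z-FR-AMC was then tracked by fluorescence.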
SARS PLP yeast: inhibitors of SARS-CoV papain-like protease in yeast. S. cerevisiae expressing SARS-CoV PLpro, growth rescue; control for the full effect not named in the record. Potency, µM (series often up to 32.9 µM), without a hit: at the top dose activity, positive = growth rescue. 330,000 compounds, 0.19% hits. AID 485353; note: 0% is about no effect; nearly all actives have a fitted effect of over 55% in size; growth read by luminescence after 48 h
Cruzain inh noDet: blocks cruzain activity in detergent-free assay. 200,000 compounds, 2.3% hits. Potency, µM, for inactives: max response, negative = inhibition, usual class: inhibitors. purified cruzain, Z-FR-AMC fluorescence, no detergent. P25779; active = well fitted curve in the direction sought with a large enough effect; inconclusive = small, poorly fitted or top-dose-only effect, or another doubt; inactive = no such curve, though single readings can be large; an effect the other way counts as inactive or inconclusive;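 note: plate controls were enzyme without inhibitor for no effect and buffer without enzyme for full effect; nearly all actives have a fitted effect of over 40% in size; top concentration of the series not given in the record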
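Purified cruzain at 1.5 nM, pre-incubated 15 min with compound at room temperature in 100 mM sodium acetate pH 5.5, 5 mM DTT, 0.00005% Triton X-100. Reaction started with 2 uM Z-FR-AMC; AMC fluorescence increase over 60 s gives rate.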
* hit, by the source's call; [ ] = dose if it differs, or a comment. Unless noted, calls come from the whole dose curve; as a rule, active means well fitted rising curve with a large enough effect; inconclusive means small, poorly fitted or top-dose-only effect; inactive means no such curve, though single readings can be large or run the other way. Potency is the fitted concentration of half-maximal effect. An unsorted share of the library; about 4.6% have a hit in one of these screens.

Screening Cc1cccc(NC(=S)N2CCN(S(=O)(=O)c3ccc(F)cc3)CC2)c1 returned 2A StopGo -15%, RE007 growth inh 0%, NS1 inh -5% and SARS PLP yeast -6%.
O=C(CN1C(=O)C(=O)N(C2CCCC2)C1=O)Nc1cc(Cl)ccc1[N+](=O)[O-] was read as Marburg entry inh 6%, 2A StopGo -4%, RE007 growth inh 9%, Lassa entry inh 2% and SARS PLP yeast 13%.
For CCN(CC)S(=O)(=O)c1ccc(NC(=O)CNC2CCCCC2)cc1 the results were Marburg entry inh 4%, 2A StopGo -7%, RE007 growth inh -7%, NS1 inh -1% and SARS PLP yeast -3%.
Screening Cc1nn(Cc2ccccc2)c(Cl)c1C(=O)OCC#N returned Marburg entry inh 10%, 2A StopGo 1%, RE007 growth inh 5%, Lassa entry inh -21% and SARS PLP yeast 1%.
`CN(CCOc1ccccc1)CC(=O)Nc1ccc([N+](=O)[O-])cc1Cl` gave Marburg entry inh 1%[46.1 µM], 2A StopGo inconclusive, RE007 growth inh 7% and SARS PLP yeast -5%.
For O=C1NC(C(F)(F)F)(C(F)(F)F)N=C2SC=CN12 the results were 2A StopGo -4%, RE007 growth inh -20%, NS1 inh 1% and SARS PLP yeast -2%.
Screening COc1ccc(CC2(CO)CCN(S(=O)(=O)c3sccc3C)CC2)cc1 returned Marburg entry inh inconclusive, 2A StopGo inconclusive, RE007 growth inh 3%, NS1 inh -8%, Lassa entry inh -26% and SARS PLP yeast -3%.
Screening O=C(C1=C[C@H](c2coc3ccccc3c2=O)C[C@H](OCCCCO)O1)N1CCN(Cc2ccc3c(c2)OCO3)CC1 returned 2A StopGo -7%, RE007 growth inh -18%, NS1 inh -5% and SARS PLP yeast 0%.
O=C(O)C[C@]1(C(=O)Nc2ccc(F)cc2)CC(/C=C/c2ccccc2)=NO1 was read as Marburg entry inh -9%[46.1 µM], 2A StopGo -7%, RE007 growth inh -13%, NS1 inh -3%, Lassa entry inh 9%[46.1 µM] and SARS PLP yeast 0%.
Screening CCN(CCCNC(=O)c1nn(-c2ccc(C)cc2)c(=O)c2c1c1ccccc1n2C)c1ccccc1 returned Marburg entry inh 11%[46.1 µM], 2A StopGo 0%, Lassa entry inh inconclusive, Cruzain inh Det -0.9% and Cruzain inh noDet -7%.
`Cc1nn(C)c2c1c(C(F)(F)F)cc(=O)n2C(C)C(=O)NCCc1ccccc1` (stereo not given) gave 2A StopGo -1%, Lassa entry inh 12%[46.1 µM], Cruzain inh Det -7.6% and Cruzain inh noDet inconclusive.
Screening COc1cc(C(=O)NCCNc2nc3ccc(C)cc3cc2C#N)cc(OC)c1OC returned 2A StopGo -3%, RE007 growth inh 0%, NS1 inh 3% and SARS PLP yeast -3%.

The last 2 compounds of the part above are carried over, then new ones follow:
`Cc1nn(C)c2c1c(C(F)(F)F)cc(=O)n2C(C)C(=O)NCCc1ccccc1` (stereo not given) gave 2A StopGo -1%, Lassa entry inh 12%[46.1 µM], Cruzain inh Det -7.6% and Cruzain inh noDet inconclusive.
Screening COc1cc(C(=O)NCCNc2nc3ccc(C)cc3cc2C#N)cc(OC)c1OC returned 2A StopGo -3%, RE007 growth inh 0%, NS1 inh 3% and SARS PLP yeast -3%.
For COc1ccc(C(=O)O/N=C(\N)c2ccccc2)c(OC)c1 the results were Marburg entry inh 1.5µM*, 2A StopGo -36%, RE007 growth inh inconclusive, NS1 inh -101%, Lassa entry inh inconclusive, Cruzain inh Det -1.7%, SARS PLP yeast -56% and Cruzain inh noDet 3%.
Screening O=C1NN(c2cccc(Br)c2)C(=O)/C1=C/c1cccs1 returned 2A StopGo 14%, RE007 growth inh 3%, NS1 inh 5% and SARS PLP yeast -2%.
`CCCCCCCn1c(=N)n(CC(O)c2ccco2)c2ccccc21` (stereo not given) gave Marburg entry inh 2.8µM*, 2A StopGo -16%, RE007 growth inh inconclusive, NS1 inh -2%, Lassa entry inh inconclusive and SARS PLP yeast 0%.
COc1cc(SC)ccc1C(=O)NCCNC(=O)c1nonc1N was read as Marburg entry inh 17%[46.1 µM], 2A StopGo -11%, RE007 growth inh 1%, NS1 inh 5%, Lassa entry inh -18% and SARS PLP yeast -1%.
For O=C(Cc1cccc2ccccc12)Nc1ccc(OC(F)F)c(Cl)c1 the results were Marburg entry inh inconclusive, 2A StopGo 3%, NS1 inh -13%, Lassa entry inh -9%, Cruzain inh Det -8.4%, SARS PLP yeast -11% and Cruzain inh noDet -15%.
`COc1cc(CN(C(=O)c2ccco2)c2ccc(C)cc2)ccc1O` gave Marburg entry inh 2%, 2A StopGo -21%, RE007 growth inh 20%, NS1 inh -4%, Lassa entry inh inconclusive, Cruzain inh Det -3.1%, SARS PLP yeast -1% and Cruzain inh noDet -4%.
`CCC1CCCCN1Cc1cc(OC)c(O)c([N+](=O)[O-])c1` (stereo not given) gave Marburg entry inh 5%, 2A StopGo 19%, RE007 growth inh 6%, NS1 inh 17%, Lassa entry inh 1%, Cruzain inh Det 1.6%, SARS PLP yeast 2% and Cruzain inh noDet -4%.
`Cc1ccc(C(=O)c2oc3ccccc3c2NC(=O)c2nc(S(C)(=O)=O)ncc2Cl)cc1F` gave Marburg entry inh 23%[46.1 µM], 2A StopGo -6%, Lassa entry inh -3%[46.1 µM], Cruzain inh Det -4.3% and Cruzain inh noDet -10%.
For COc1cc(OC)c2c(-c3cccc(-c4ccc(NC(C)=O)cc4)c3)cc(=O)oc2c1 the results were 2A StopGo 4%, RE007 growth inh 5%, Cruzain inh Det -4.9%, SARS PLP yeast 4% and Cruzain inh noDet 23%.
`COc1ccc(S(=O)(=O)N2CCOCC2)cc1NC(=O)Cc1coc2cc(C)c(C)cc12` gave 2A StopGo 14%, RE007 growth inh 5%, NS1 inh 14% and SARS PLP yeast 15%.
CC(C)c1c(O)nc(SCCC(=O)O)[nH]c1=O was read as Marburg entry inh 5%, 2A StopGo -3%, RE007 growth inh 14%, NS1 inh -2%, Lassa entry inh -4%, Cruzain inh Det 4.1%, SARS PLP yeast -1% and Cruzain inh noDet -7%.
`O=c1[nH]c(=O)n(Cc2ccccc2)c2nc(-c3ccc(Oc4ccc(F)cc4)c([N+](=O)[O-])c3)n(CCO)c12` gave Marburg entry inh inconclusive, 2A StopGo 0%, RE007 growth inh 19%, NS1 inh 29%, Lassa entry inh inconclusive, Cruzain inh Det -6.0%, SARS PLP yeast 10% and Cruzain inh noDet inconclusive.
`CC(=O)Nc1ccc(S(=O)(=O)N(C)CC(=O)OCC(=O)N(C)C2CCS(=O)(=O)C2)cc1` (stereo not given) gave Marburg entry inh inconclusive, 2A StopGo -13%, RE007 growth inh 3%, Lassa entry inh -2%[46.1 µM] and SARS PLP yeast inconclusive.
For Cc1ccccc1NC(=O)n1ncc2cc(Cl)ccc21 the results were Marburg entry inh 19%[46.1 µM], 2A StopGo 40%[activator], RE007 growth inh -14%, NS1 inh -6%, Lassa entry inh 17%[46.1 µM] and SARS PLP yeast -2%.
Cc1ccc(C)c(N2CCN(C(=O)c3c(C)oc4nc(C)nc(N5CCOCC5)c34)CC2)c1 was read as 2A StopGo -24%, Lassa entry inh -5%[46.1 µM], Cruzain inh Det -0.7% and Cruzain inh noDet inconclusive.
`Cc1ccccc1C(=O)NC(=S)NCc1cccnc1` gave Marburg entry inh 22%[46.1 µM], 2A StopGo -18%, RE007 growth inh 8%, NS1 inh 1%, Lassa entry inh -8% and SARS PLP yeast -1%.
COc1ccccc1CNc1ncccc1[N+](=O)[O-] was read as 2A StopGo 9%, RE007 growth inh -16%, NS1 inh -4% and SARS PLP yeast 2%.
O=C(O)c1ccc(N2CCCCS2(=O)=O)cc1 was read as Marburg entry inh 23%[46.1 µM], 2A StopGo -3%, RE007 growth inh -20%, NS1 inh 5%, Lassa entry inh -4% and SARS PLP yeast 1%.
O=Cc1c(Sc2ccccn2)nc2ccccn2c1=O was read as Marburg entry inh 1%, 2A StopGo inconclusive, RE007 growth inh -5%, NS1 inh 2%, Lassa entry inh -18%, Cruzain inh Det -6.6%, SARS PLP yeast -4% and Cruzain inh noDet 3%.
O=[N+]([O-])c1ccccc1/C=C/C=N/n1c(-c2ccco2)n[nH]c1=S was read as Marburg entry inh -24%[46.1 µM], 2A StopGo 5%, RE007 growth inh -5%, NS1 inh 17%, Lassa entry inh inconclusive and SARS PLP yeast 17%.
`Cc1cc(NC(=O)CSc2cc(C)c3ccccc3n2)no1` gave Marburg entry inh inconclusive, 2A StopGo -23%, RE007 growth inh 0%, Lassa entry inh 0%[46.1 µM] and SARS PLP yeast 8%.
Screening COCCNC(=O)Cn1cc(/C=C(\C#N)C(=O)NC2CCCC2)c2ccccc21 returned 2A StopGo 9%, RE007 growth inh -21%, NS1 inh -5% and SARS PLP yeast 0%.
O=S(=O)(c1ccc2[nH]c3c(c2c1)CCCCC3)N1CCN(c2ccccc2)CC1 was read as 2A StopGo 0%, Lassa entry inh inconclusive, Cruzain inh Det -3.5% and Cruzain inh noDet 25µM*.
Screening COCCCNC(=O)CC(=O)N/N=C\c1ccc(SC)cc1 returned 2A StopGo -2%, RE007 growth inh 14%, NS1 inh 1% and SARS PLP yeast -1%.
Screening CCCCCn1c(SCC#N)nc2cc(C(=O)NCC3CCCO3)ccc2c1=O (stereo not given) returned Marburg entry inh -27%, 2A StopGo -26%, RE007 growth inh 17%, NS1 inh -1%, Lassa entry inh 5%, Cruzain inh Det 4.7%, SARS PLP yeast 2% and Cruzain inh noDet inconclusive.
Screening Cc1ccc2nc(-c3c[nH]c4ccccc34)c(Nc3ccc(F)cc3)n2c1 returned Marburg entry inh inconclusive, 2A StopGo 19%, Lassa entry inh 8%[46.1 µM], Cruzain inh Det -16% and Cruzain inh noDet 14%.
For CCc1ccc(NC(=O)c2ccc(OC)c([N+](=O)[O-])c2)cc1 the results were Marburg entry inh inconclusive, 2A StopGo -10%, RE007 growth inh -16%, NS1 inh 11%, Lassa entry inh -9%, Cruzain inh Det -10%, SARS PLP yeast inconclusive and Cruzain inh noDet -15%.
